Bioassay records deposited in PubChem BioAssay by National Center for Advancing Translational Sciences (NCATS).
HPGD block – qHTS Assay for Inhibitors of HPGD (15-Hydroxyprostaglandin Dehydrogenase); Potency, µM, without a hit: at the highest dose activity change, negative = inhibition, actives largely listed as inhibitors; AID 894, 2007; actives 4.3% (n = 150,000); purified HPGD, NADH fluorescence kinetic, PGE2 substrate; active = well fitted inhibition curve with a large enough effect (not every such curve was filed as active); inconclusive = small, poorly fitted or top-dose-only effect, or another doubt; inactive = no such curve, though single readings can be large or run the other way;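 further: top concentration of the series not given in the record; plate controls included wells without enzyme; inactives centre near -10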
Target sequence (P15428 whole entry, looked up): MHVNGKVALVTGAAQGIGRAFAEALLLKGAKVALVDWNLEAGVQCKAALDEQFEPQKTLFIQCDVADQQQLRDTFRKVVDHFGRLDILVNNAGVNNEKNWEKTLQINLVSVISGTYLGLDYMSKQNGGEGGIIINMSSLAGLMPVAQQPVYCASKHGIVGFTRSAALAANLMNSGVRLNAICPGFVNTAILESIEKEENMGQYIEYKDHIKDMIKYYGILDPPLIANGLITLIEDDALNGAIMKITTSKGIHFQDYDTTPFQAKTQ
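NADH formation kinetics: reaction with 30 uM PGE2 and 1 mM NAD+ (final), 20 nM enzyme, Tris-HCl pH 8 with Tween 20, after 15 min compound preincubation at room temperature. Fluorescence change, last versus first of five reads.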
Active calls of the source: *; u = inconclusive; & = joins results of further samples. On the % scale 0 is the no-effect control and ±100 the full control effect; potency means the concentration at half of the fitted maximal effect. Only part of the results is shown; the hit share may differ from the screen's.

HPGD block | Compound
-11.6% | Cc1ccc(C(O)CN2C3=NCCN3c3ccccc32)cc1 (stereo not drawn)
-15.3% | CC(=O)N(c1ccccc1)C1SC(=O)N(c2ccccc2)C1=O (stereo not drawn)
-14.1% | O=S(=O)(c1cc(Cl)ccc1Br)N1CCCCC1
-22.5% | O=C(NC1CCCC1)C(c1c[nH]c2ccccc12)N(C(=O)Cn1nnc(-c2ccc(Cl)cc2)n1)c1ccccc1 (stereo not drawn)
-7.2% | COc1ccc(/C(C)=N\n2cnnc2)cc1
-8.9% | C=C(C)C(=O)Nc1cccc(C(C)=O)c1
-4.3% | CCOC(=O)C1=C(N)OC2=C(C(=O)CC(C)(C)C2)C1c1ccoc1 (stereo not drawn)
-10.8% | Cc1ccnc2c(N3C(=O)C4C5C=CC(C5)C4C3=O)cccc12 (stereo not drawn)
-5.1% | CCC(=O)N1CCN(c2ccc(Cl)cc2NC(=O)Cc2ccccc2)CC1
-6.0% | CS(=O)(=O)N(CC(=O)Nc1cccnc1)c1ccc2c(c1)OCCO2
-5.1% | Nc1ncnc2c([C@@H]3O[C@@H](CO)[C@H](O)[C@@H]3O)nsc12
-7.8% | COc1cccc(/C(O)=C2\C(=O)C(=O)N(c3ccccn3)C2c2ccccc2OC)c1 (stereo not drawn)
-5.0% | Cc1ccccc1CSCC(=O)c1c(N)n(C)c(=O)n(C)c1=O
-9.1% | CCOC(=O)c1ccc(N2CSC3=C(C#N)C(c4ccc(OC)cc4OC)CC(=O)N3C2)cc1 (stereo not drawn)
-14.2% | CCC(=O)Nc1ccc(S(=O)(=O)c2ccc(NC(=O)CC)cc2)cc1
-21.1% | c1ccc(CSc2nnc(Cc3ccccn3)o2)cc1
-13.7% | Cc1ccc(CC(=O)Nc2ccccc2-c2ccccc2)cc1C
-22.8% | Cn1cccc1-c1nc2ccc(NC(=O)c3ccc([N+](=O)[O-])cc3)cc2[nH]1
-22.8% | Cc1cc(OCC(=O)NC(C)C)cc(C)c1Cl
-12.0% | CC(/C=C/c1ccc2c(c1)OCO2)=N/NC(=O)c1cccnc1
-9.3% | COc1nccc(Nc2ccccc2)c1C#N
-10.6% | Cc1ccccc1NC(=O)c1oc(=O)c2ccccc2c1-c1ccccc1
u | CCc1ccc(-c2cc(C(F)(F)F)n3nc(C(=O)Nc4cnn(Cc5ccc(C)cc5)c4)cc3n2)s1
-18.3% | Cc1ccc(Nc2cc(C)nc3nc(C)nn23)c(C)c1
-6.6% | CCOC(=O)N1CCN(C(=O)CCn2nc(-c3ccc(Cl)cc3)ccc2=O)CC1
-5.5% | NCCCC(=O)N1c2ccccc2Sc2ccccc21
-9.9% | COc1ccccc1NC(=O)c1ccccc1-c1nc(-c2ccccc2OC)no1
-4.8% | CC1(C)CC(=O)C(CC(=O)NC(=O)NCc2ccccc2)=C(O)C1
-9.4% | COc1ccc(N2CCN(C(=O)CSc3nnnn3-c3ccc4c(c3)OCCO4)CC2)cc1
-3.3% | Oc1ccc2ccccc2c1CN(Cc1c(O)ccc2ccccc12)C1CCCCC1
-10.7% | Cc1sc(NC(=O)c2cc3ccccc3oc2=O)c(C(=O)OC(C)C)c1-c1ccccc1
-6.3% | Cc1[nH]c(-c2ccco2)nc1C(=O)O
28.2µM* | COCCCNC(=O)/C=C/c1cccc(Cl)c1
u | O=C(COC(=O)c1ccccc1)NCc1cccs1
-3.2% | CSCCC(NC(=O)c1ccccc1)C(=O)OCC(=O)c1ccc[nH]1 (stereo not drawn)
-11.3% | CCCC(=O)Nc1ccccc1NC(C)=O
-2.9% | COc1ccc(-n2nc(C(=O)c3cccs3)cc(-c3nc4ccccc4[nH]3)c2=N)cc1
-18.1% | COc1ccc(N(CC(=O)Nc2ccc3c(c2)OCCO3)S(=O)(=O)c2cccnc2)cc1
-13.7% | COc1ccc(-n2c(C)nnc2SCC(=O)N2C(C)CCCC2C)cc1 (stereo not drawn)
u | O=C(Nc1ccc2oc(-c3ccccc3F)nc2c1)c1ncn[nH]1
2.7% | O=C(CCC1CCCC1)c1c(O)c2ccccc2oc1=O
0.0% | COc1ccc(CN2CCCCC2c2cccnc2)c(OC)c1C (stereo not drawn)
u | CCN(CC)S(=O)(=O)c1cc([N+](=O)[O-])ccc1NNC(=O)Nc1ccccc1OC
-7.7% | Cc1cc(C)c(C2C(C#N)=C(N)Oc3n[nH]c(C)c32)cc1CN1CCOCC1 (stereo not drawn)
u | Cn1c2ccccc2c2cc(C(=O)OCC(=O)N3CC(=O)Nc4ccccc43)sc21

Of the compounds above, these have an aryl methoxy group.
HPGD block | Compound
-7.2% | COc1ccc(/C(C)=N\n2cnnc2)cc1
-7.8% | COc1cccc(/C(O)=C2\C(=O)C(=O)N(c3ccccn3)C2c2ccccc2OC)c1 (stereo not drawn)
-9.1% | CCOC(=O)c1ccc(N2CSC3=C(C#N)C(c4ccc(OC)cc4OC)CC(=O)N3C2)cc1 (stereo not drawn)
-9.3% | COc1nccc(Nc2ccccc2)c1C#N
-9.9% | COc1ccccc1NC(=O)c1ccccc1-c1nc(-c2ccccc2OC)no1
-9.4% | COc1ccc(N2CCN(C(=O)CSc3nnnn3-c3ccc4c(c3)OCCO4)CC2)cc1
-2.9% | COc1ccc(-n2nc(C(=O)c3cccs3)cc(-c3nc4ccccc4[nH]3)c2=N)cc1
-18.1% | COc1ccc(N(CC(=O)Nc2ccc3c(c2)OCCO3)S(=O)(=O)c2cccnc2)cc1
-13.7% | COc1ccc(-n2c(C)nnc2SCC(=O)N2C(C)CCCC2C)cc1 (stereo not drawn)
0.0% | COc1ccc(CN2CCCCC2c2cccnc2)c(OC)c1C (stereo not drawn)
u | CCN(CC)S(=O)(=O)c1cc([N+](=O)[O-])ccc1NNC(=O)Nc1ccccc1OC

Later entries
HPGD block | Compound
-7.5% | CC(=O)[C@@]1(O)CC[C@H]2[C@@H]3C[C@H](C)C4=CC(=O)C=C[C@]4(C)[C@@]3(F)[C@@H](O)C[C@@]21C
-4.3% | Cc1cc(C)c(NC(=O)C(C)(C)C)c(Cl)c1
15.8µM* | O=C1CSC(=Nc2ccccc2Cl)N1
-7.1% | Cc1cccc2cc(/C=C3\N=C(c4ccccc4)OC3=O)c(N3CCOCC3)nc12
-0.9% | COc1ccccc1-c1nnc(SCc2nc3ccccc3[nH]2)n1C
-7.6% | O=C(O)c1cc2sccc2s1
-13.5% | COc1ccc(CCNC(=O)C2CCN(C(=O)N(C)C)CC2)cc1OC
u | Cc1nnc2sc(-c3csc4c3CCCC4)nn12
u | COc1cc2[nH]c(=O)n(CCCCCC(=O)NCCCN3CCOCC3)c(=O)c2cc1OC
u | O=c1cc(C(F)(F)F)[nH]c2c(C(F)(F)F)cccc12
u | Cc1nc(C)c(C(=O)N/N=C/c2c[nH]c3ccccc23)s1
u | CC(=O)c1ccc(NC(=O)COC(=O)CCC(=O)c2cccs2)cc1
25.1µM* | O=C(Nc1cc(Cl)c(O)c(Cl)c1)C1CCCO1 (stereo not drawn)
0.7% | Nc1c(-c2cccs2)cnn1-c1nc(-c2ccc(F)cc2)cs1
u | CCS(=O)(=O)Nc1ccc(C(=O)CC2(O)C(=O)Nc3ccccc32)cc1 (stereo not drawn)
-2.5% | CC1CCN(C(=O)Cn2cc(C(=O)C3CC3)c3ccccc32)CC1
-23.4% | COc1ccccc1NC(=O)C1=C(C)NC2=C(C(=O)CC(c3ccc(OC)c(OC)c3)C2)C1c1coc2ccccc2c1=O (stereo not drawn)
-1.9% | COc1ccc(Cl)cc1NC(=O)c1cccnc1
-4.1% | COc1ccc(CN(CCO)CCO)cc1[N+](=O)[O-]
-22.8% | Cc1cccc(-n2c(C)nc3c(cnn3-c3ccc(F)cc3)c2=O)c1
-10.5% | O=C(CCC1CCCCC1)NNC(=O)c1cnccn1
u | Nc1nc(CSc2nnnn2-c2ccccc2)nc(N2CCCc3ccccc32)n1
u | CCNc1ncc2nc(-c3ccc(OC)cc3)c(=O)n(Cc3cccc(OC)c3)c2n1
-10.3% | Cc1c(C(=O)N/N=C/c2ccc(Cl)cc2)[nH]c2ccc(Cl)cc12
u | COc1cc(-c2nnc(COC(=O)c3cc(C)nc4ccc(C)cc34)o2)cc(OC)c1OC
-18.2% | COc1ccc(Oc2ccccc2C=O)cc1
-17.3% | N/C(=N/OCC(=O)Nc1cccc2ccccc12)c1nonc1N
-2.1% | CCN(CC)C(=O)CSC1=N/C(=C/c2ccco2)C(=O)N1c1ccc(OC)c(Cl)c1
-12.7% | COc1ccccc1C1CC(=O)Oc2cc(C)c(Cl)c(C)c21 (stereo not drawn)
-16.2% | CCOC(=O)c1ccc(NC(=O)c2cnccn2)cc1
-8.2% | C/C(=N/O)c1ccc2c(c1)OCCOCCOc1cc(/C(C)=N/O)ccc1OCCOCCO2
-15.3% | COc1ccc(-c2cn3nc4c(nc3n2)CCCC4)cc1
2.6% | COc1cc([C@H]2c3cc4c(cc3[C@@H](O[C@H]3O[C@H]5CO[C@@H](C)O[C@H]5[C@@H](O)[C@@H]3O)[C@@H]3COC(=O)[C@H]23)OCO4)cc(OC)c1O
-4.6% | COc1ccccc1Oc1ccc2c(c1)C(=O)N(c1cccc3ncccc13)C2=O
-15.2% | COc1ccc(C2C(C#N)=C3NC(=O)c4c(sc5c4CCCCC5)N3C3=C2C(=O)CC(C)(C)C3)cc1 (stereo not drawn)
-13.4% | Cc1c(Cl)ccc(S(=O)(=O)N2CCN=C2c2ccccc2)c1Cl
-24.6% | O=C(NC(=O)c1ccc(F)cc1)Nc1nc(-c2cccs2)cc(C(F)(F)F)n1
u | OCCNc1nc(-c2ccccc2)c2ccccc2n1
-19.6% | COc1ccccc1NC(=O)N1CCc2[nH]c3ccc(F)cc3c2C1
-25.8% | COc1ccc(-c2nc(-c3ccccc3)c(-c3cc([N+](=O)[O-])ccc3C)[nH]2)cc1OC
2.7% | O=C(CCn1cnc2ccccc2c1=O)Nc1ccc2c(c1)OCCO2
u | Cc1cc(C)c(C#N)c(N2CCN(CCOc3ccc(Cl)cc3)CC2)n1
-4.2% | CCn1c(C)nc2cc(C(=O)OCCC(F)(F)F)ccc21
-18.3% | O=C(C1CCCO1)N1CCN(C(=S)Nc2ccc(Cl)c(Cl)c2)CC1 (stereo not drawn)
0.7% | CCCCC(=O)N/N=C(\C)CC(=O)Nc1ccccc1Br
-16.6% | Cc1ccc(NC(=O)CSc2nc3ccccc3c(=O)n2CCCC(=O)N2CCCC2)cc1
-11.3% | O=C1Nc2ccccc2Oc2cc([N+](=O)[O-])cc(Oc3ccccc3)c21
-4.5% | Cc1ccc(S(=O)(=O)NNC(=O)CCC(=O)Nc2ccc(C)cc2C)cc1
-13.1% | C=CCN1C(=O)C2(c3ccccc31)C1CCCC=C1C(C#N)=C(N)C2(C#N)C#N (stereo not drawn)
-5.2% | O=C(Nc1cccc2c1CCCC2)c1ccncc1
28.2µM* | O=C(CSc1nc(-c2ccccc2)cs1)NCc1ccco1
-25.2% | COc1ccc(C=Nc2c(O)ccc3ccccc23)cc1OC
-16.0% | CC(Cc1cccs1)NC(=O)Nc1ccc(Cl)c(Cl)c1 (stereo not drawn)
-12.4% | COc1ccc([N+](=O)[O-])cc1N(CC(O)CN(C)C)S(=O)(=O)c1ccccc1 (stereo not drawn)
-10.9% | Cc1ccc(S(=O)(=O)Nc2cc(NC(=O)CN3CCOCC3)ccc2Cl)cc1
-5.9% | Cc1cc(NC(=O)NC(=O)c2ccc(F)cc2F)n[nH]1
u | CCN(CC)c1ccc(-c2nnc(SCC(=O)Nc3ccccc3C#N)n2-c2ccccc2)cc1
0.5% | Cc1ccc(C)c2c1cc(C)c1nnc(SCc3ccccn3)n12
u | COC(=O)c1ccc(-c2ccco2)n1Cc1nc(-c2ccc(OC)c(OC)c2)oc1C
-8.4% | C=CCNC(=O)C(=O)N/N=C/c1ccco1

Structures shown so far that have bromine (2):
HPGD block | Compound
-14.1% | O=S(=O)(c1cc(Cl)ccc1Br)N1CCCCC1
0.7% | CCCCC(=O)N/N=C(\C)CC(=O)Nc1ccccc1Br

Other records:
HPGD block | Compound
2.3% | COC1C[C@@H](O[C@@H]2C(C)C(=O)OC(C)C(C)[C@H](OC(C)=O)C(C)C(=O)[C@@]3(CO3)CC(C)C(OC3OC(C)CC(N(C)C)[C@H]3OC(C)=O)C2C)OC(C)[C@@H]1OC(C)=O (stereo partly drawn)
-8.1%&-7.4% | O=C(Nc1cccc(C(F)(F)F)c1)OCCN1CCN(Cc2ccccc2)CCC1=O
0.1% | Cn1nnnc1SCc1nc2ccccc2[nH]1
-8.2% | C/C(=N\NC(=O)CNC(=O)C(c1ccccc1)c1ccccc1)c1ccccc1
-6.8% | CCC1(c2ccccc2)NC(=O)N(Cc2ccc(C(=O)OC)cc2)C1=O (stereo not drawn)
-10.8% | O=C(Nc1nc2cc3c(cc2s1)OCCO3)c1cccc(S(=O)(=O)N2CCOCC2)c1
31.6µM* | CN(C)c1ccnc(Oc2ccc(Cl)cc2)c1C#N
22.4µM* | Cc1cc(C)cc(Oc2ccccc2/C=N\O)c1
-6.5% | COc1ccccc1N1CCN(C(=O)COc2ccc(C)cc2Br)CC1
-21.5% | Cc1cc(=O)[nH]c(SCc2cc(=O)n3nc(C)sc3n2)n1
-10.3% | Cc1nc(-c2ccccc2)sc1C(=O)/C=C/c1ccccc1
-12.4% | CCC(C(=O)Nc1nccs1)c1ccccc1 (stereo not drawn)
-0.2% | COc1ccccc1N1C(N)=NC(N)=NC1(C)C
-3.6% | Cn1cccc1CC(=O)NNC(=O)Nc1ccc(F)cc1
-20.5% | Nc1ccc(-n2nncc2-c2ccc(Cl)cc2)cc1
0.6% | COc1ccc(S(=O)(=O)N2CCC(C(=O)Nc3c(F)cccc3F)CC2)cc1
